D2 potentiator: positive allosteric modulators of human D2 dopamine receptor | DiscoveRx D2 beta-arrestin cells, luminescence, 90 min; 100% = 57 uM dopamine signal | potentiation, % (no concentration beside the values) | 360,000 tested, 0.23% active | AID 624464; active = potentiation of 50% or more; inconclusive = 30% to 50%; inactive = 30% or less;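 also: compound concentration not given in the record; tested on top of an EC20 dose of dopamine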
Target sequence (P14416 whole entry, looked up): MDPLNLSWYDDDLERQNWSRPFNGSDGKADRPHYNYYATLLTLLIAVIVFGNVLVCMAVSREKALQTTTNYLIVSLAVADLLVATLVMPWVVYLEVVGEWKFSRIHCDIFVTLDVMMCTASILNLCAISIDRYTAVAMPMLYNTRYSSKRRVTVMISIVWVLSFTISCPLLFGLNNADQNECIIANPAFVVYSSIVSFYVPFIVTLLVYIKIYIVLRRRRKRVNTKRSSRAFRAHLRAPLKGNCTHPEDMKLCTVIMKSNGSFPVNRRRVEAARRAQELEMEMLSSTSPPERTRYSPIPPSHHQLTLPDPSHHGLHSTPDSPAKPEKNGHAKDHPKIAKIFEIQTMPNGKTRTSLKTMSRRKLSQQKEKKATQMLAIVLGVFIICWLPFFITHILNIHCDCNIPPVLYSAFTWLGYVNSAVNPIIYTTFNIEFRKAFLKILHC
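D2 cells co-treated with compound plus 50 nM dopamine (EC20) for 90 min at 37 deg C to detect potentiation. Beta-arrestin recruitment was read as enzyme-fragment luminescence after 1 h at ambient temperature. Full response was set by 57 uM dopamine.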
TRPML1 ag: human mucolipin-1 channel agonism | TRPML1-expressing cells, Ca2+ dye fluorescence, FDSS; host cell line not named in the record; reference of the full effect not given here | activation, % (no concentration beside the values) | 410,000 tested, 0.12% active | AID 624414; in the data active = activation above about 50%; inconclusive = about 30% to 50%; inactive = below about 30%; also: 0% is about no effect; the text of the record puts the active cut at 80%
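Tetracycline-induced TRPML1-DL cells are seeded and incubated overnight before loading with a no-wash Ca2+ dye and quencher. Agonist activity is taken from the 110 s fluorescence read following compound pin-transfer on an FDSS, before EC80 54-4 challenge.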
TRPML1 inh: human mucolipin-1 channel inhibition; TRPML1-inducible cells, Ca2+ dye fluorescence, FDSS; active compounds read low; inhibition of EC80 agonist-evoked calcium signal; Q9GZU1; AID 624415; 390,000 tested, 0.02% active; activity change, negative = inhibition, % (concentration not given with the values); in the data active means activity change below about -50%; inconclusive means about -30% to -50%; inactive means above about -30%;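 also: stimulus is agonist 54-4 at its EC80 concentration; % is scaled to controls: 0 for no effect and ±100 for the full control effect; the text of the record puts the active cut at -80%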
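TRPML1-DL cells, Tet-induced overnight (~16 h, 37 °C) at 1,500 cells/well, were loaded with Ca8 no-wash dye plus quencher for 45-90 min at room temperature. Compounds were pinned during FDSS kinetic reading; agonist 54-4 at EC80 (4 uM final) then added.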
D2 agonist: activates the human D2 dopamine receptor. activation, % (test concentration not listed). DiscoveRx PathHunter D2 beta-arrestin, luminescence, 90 min; 100% = 57 uM dopamine signal. P14416. 360,000 tested, 0.084% active; in the data active = activation above about 40%; inconclusive = about 15% to 40%; inactive = below about 15%; also: compound concentration not given in the record; the text of the record calls up to 30% inactive
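DiscoveRx PathHunter D2 beta-arrestin cells (2,100/well) attached overnight, then compound-stimulated 90 min at 37 C in HBSS/10 mM HEPES/0.1% Tween-20 buffer; beta-galactosidase complementation read by luminescence after 1 h at ambient temperature. Dopamine 57 uM final (EC100) as control.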
PINK1 expr mod: changes PINK1 expression. PINK1 immunofluorescence, high-content cytometry, 24 h. Potency, µM (highest dose often 76.6 µM), for inactives: at the top dose activation (PINK1 increase), most hits filed as activators. 410,000 tested, 0.2% active. AID 624263; active = well fitted activation curve with a large enough effect; inconclusive = small, poorly fitted or top-dose-only effect; inactive = flat fitted curve, though single readings scatter; cell line not stated here;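 also: potency is read from the fitted curve at half-maximal effect; % of control where 0% means no effect; nearly all actives have a fitted effect of over 65% in size; a mitochondrial uncoupler was the plate control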
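Measures PINK1 amount and localization on or inside mitochondria by immunofluorescence. Stable cells get compounds at 5 concentrations for 24 hours before fixation and staining; CCCP controls included.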
Six1-Eya2 inh: blocks human Six1 binding to Eya2 | AlphaScreen GST-Six1/His-Eya2 binding, biochemical; active compounds read low; control for the full effect not named in the record | activity change, % (test concentration not listed) | 360,000 tested, 0.56% active; in the data active = activity change below about -65%; inconclusive = about -30% to -65%; inactive = above about -30%; also: % is scaled to controls: 0 for no effect and ±100 for the full control effect
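AlphaScreen with GST-Six1 and His-Eya2 (5X mix: 250 nM and 500 nM), glutathione donor and nickel acceptor beads; buffer 50 mM Tris pH 8.0, 300 mM NaCl, 1 mM TCEP; 1 h at 37 C in the dark.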
Starred values were filed as active, the others as inactive; . = no result given; [ ] = remark or other dose.

canonical_smiles | TRPML1 ag | Six1-Eya2 inh | TRPML1 inh | PINK1 expr mod | D2 agonist | D2 potentiator
COCCCn1c(SCC(=O)Nc2cccc(C(=O)OC)c2)nnc1-c1ccncc1 | -0.5 | 1 | -2 | -0.8% | -3.5 | -13
COc1ccc(CC(=O)NC2CC(=O)N(c3cccc(F)c3)C2)cc1OC (stereo unspecified) | 0.5 | . | 11 | 0.4% | . | .
CCS(=O)(=O)N1CCN(c2ccccc2)CC1 | -0.6 | 14 | -8 | 0.1% | -1.8 | -8
CN1C(=O)CC(N2CCN(c3ccc(Cl)cc3)CC2)C1=O (stereo unspecified) | 0.4 | 5 | 20 | -1.4% | -2.3 | -15
COc1ccc(-c2[nH]ncc2CN(C)Cc2cccnc2)c(OC)c1 | -0.2 | -2 | -15 | 0.8% | 6.6 | -12
CCOC(=O)C1=C(N)N(c2ccccc2)C(=O)C1 | -0.2 | -5 | 3 | 0.8% | -2.8 | -7
CCCN1C(=O)C2C(C(=O)Nc3cccc(OC)c3)C3C=CC2(O3)C1C(=O)NC1CCCCC1 (stereo unspecified) | 0.2 | -1 | 10 | -1.6% | -3.0 | -24
CC(C)OCCCNC(=O)c1cn(C)c2ccc(S(=O)(=O)N3CCCCCC3)cc2c1=O | -0.9 | . | 18 | 3.3% | . | .
CC(C)Cc1nn2c(=O)cc(COC(=O)c3ccccc3NC(=O)C3CCCCC3)nc2s1 | 1.4 | . | 42 | 2.4% | . | .
COc1ccc([C@H]2CC(=O)C=C(c3ccccc3C(F)(F)F)C2)cc1 | 0.1 | 6 | -8 | 5.3% | 1.0 | 0
CCOc1ccc(NC(=O)c2cc3c(=O)n(C)c4ccccc4c3n2C)cc1 | 4.9 | 2 | -9 | 11% | -4.0 | -1
O=C(Cn1nc(C(F)(F)F)c2c1CCC2)NC1CCCCC1 | 1.1 | 11 | -12 | 0.1% | 0.3 | -9
CC(C)n1c2ccccc2c2cc([N+](=O)[O-])ccc21 | 2.2 | -1 | 1 | 0.5% | 0.9 | -13
CCOc1cccc(-c2nc3ccccc3c(=O)o2)c1 | 2.4 | . | 7 | 2.6% | . | .
CCn1c(-c2ccccc2)c(C(=O)CCl)c2ccccc21 | 2.4 | 1 | 4 | -0.7% | 9.6 | 7

Only D2 potentiator, TRPML1 ag and TRPML1 inh (three entries from above):
SMILES	D2 potentiator	TRPML1 ag	TRPML1 inh
CCOC(=O)C1=C(N)N(c2ccccc2)C(=O)C1	-7	-0.2	3
CCCN1C(=O)C2C(C(=O)Nc3cccc(OC)c3)C3C=CC2(O3)C1C(=O)NC1CCCCC1 (stereo unspecified)	-24	0.2	10
CC(C)OCCCNC(=O)c1cn(C)c2ccc(S(=O)(=O)N3CCCCCC3)cc2c1=O	.	-0.9	18

The listing continues.
canonical_smiles | TRPML1 ag | Six1-Eya2 inh | TRPML1 inh | PINK1 expr mod | D2 agonist | D2 potentiator
CCOc1nc(Nc2ccc(OC)cc2)nc(OCC)n1 | -1.3 | -15 | -10 | -0.5% | -2.5 | 4
Cc1ccc(OCCNC(=O)CNC(=O)c2ccc(C)cc2)cc1 | -0.4 | 22 | -9 | -0.6% | -2.6 | 3
COc1ccc(CNCCC(c2ccc(OC)cc2)c2ccccc2OC)cc1 (stereo unspecified) | 0.3 | -2 | -10 | -1.2% | -3.6 | -16
Cc1cccc(NC(=O)CN2CCN(C(=O)CN3C(=O)NC4(CC(C)CC(C)(C)C4)C3=O)CC2)c1C (stereo unspecified) | 0.1 | 0 | 1 | 2.3% | -0.2 | -1
Cc1nc(S(=O)(=O)N(C)Cc2ccccc2)c(C#N)c(C)c1Cl | 1.0 | 11 | 28 | 1.6% | -0.6 | -18
COc1ccc(/C=N/OCC(=O)N(Cc2ccc(OC)cc2)c2ccccc2C(=O)O)cc1 | 0.6 | -1 | 6 | -1.0% | -2.7 | -8
O=C(NCC(c1cccs1)N1CCOCC1)c1ccc(Cl)nc1 (stereo unspecified) | 0.1 | 2 | -19 | 8.8% | 6.4 | -7
COc1ccc(NC(=S)N(CCCOC(C)C)C2CCN(C(C)=O)CC2)cc1Cl | 2.4 | -3 | -3 | 3.0% | -2.2 | 2
CCN(CC)S(=O)(=O)c1ccc(NCc2ccccn2)nc1 | -0.4 | 3 | -4 | 2.4% | -1.2 | -8
Brc1cccc(-c2nn(-c3ccccc3)c3c2cnc2cc4c(cc23)OCO4)c1 | -0.6 | . | 3 | 3.8% | . | .
CC(C)(C)c1ccc(OCc2nc3ccccc3n2CCOc2ccccc2)cc1 | 1.7 | . | -5 | 3.6% | . | .
Cc1ccc(C(=O)N2CCC(C(=O)NC3CCCC3)CC2)cc1 | 0.3 | 3 | -3 | 1.7% | 0.4 | -2
O=S(=O)(c1ccccc1)n1cc(-c2ccccn2)c(N2CCOCC2)n1 | 1.0 | 5 | 19 | -0.9% | -0.9 | -1
Cn1cnc(S(=O)(=O)N2CCC(C(=O)Nc3ccc(F)cc3F)CC2)c1 | 1.4 | . | -16 | 0.2% | . | .
c1ccc(C2Nc3ccccc3Oc3ccccc32)cc1 (stereo unspecified) | 3.8 | -13 | -5 | 0.4% | -2.4 | -13
CC1CCCN(C(=O)c2ccc3c(=O)n4nc(Nc5ccccc5)sc4nc3c2)C1 (stereo unspecified) | 1.9 | 17 | 2 | 0.6% | 0.8 | 2
Cc1ccc(SCc2cn3cc(Cl)ccc3n2)cc1 | 1.1 | -4 | -5 | 0.8% | 0.2 | -6
Cc1n[nH]c(=O)c2c(NC(=O)CSc3nn(-c4ccc(F)cc4)c(=S)s3)oc(C)c12 | 0.5 | -10 | 5 | 0.0% | -0.9 | -11
CC(C)OC(=O)CSc1ncnc2c1cnn2-c1ccccc1 | -0.3 | 1 | -9 | . | -4.3 | 10
CCOC(=O)c1[nH]c(C)c(C(=O)Nc2ccc3c(c2)OCCO3)c1C | 0.8 | -2 | 0 | 1.2%[38.3 µM] | 2.2 | -3
Cc1ccc2cc(CCNC(=O)c3ccc(S(=O)(=O)N4CCOCC4)cc3)c(=O)[nH]c2c1C | -0.6 | -16 | 0 | 2.1% | -1.7 | -5
CCOc1ccccc1N1CCN(C(=O)c2ccc(-c3ccc(OC(C)=O)cc3)cc2)CC1 | 3.1 | -11 | -2 | -0.5% | -1.4 | -4
COc1ccccc1C1C(C#N)=C(N)N(N(C)C)C2=C1C(=O)CC(C)(C)C2 (stereo unspecified) | 0.6 | -5 | 1 | -0.6% | 3.1 | -15

Rewritten with two lines to a compound: part of the list above.
Value order – TRPML1 ag, Six1-Eya2 inh, TRPML1 inh, PINK1 expr mod, D2 agonist, D2 potentiator
CC1CCCN(C(=O)c2ccc3c(=O)n4nc(Nc5ccccc5)sc4nc3c2)C1 (stereo unspecified)
  1.9, 17, 2, 0.6%, 0.8, 2
Cc1n[nH]c(=O)c2c(NC(=O)CSc3nn(-c4ccc(F)cc4)c(=S)s3)oc(C)c12
  0.5, -10, 5, 0.0%, -0.9, -11
CCOC(=O)c1[nH]c(C)c(C(=O)Nc2ccc3c(c2)OCCO3)c1C
  0.8, -2, 0, 1.2%[38.3 µM], 2.2, -3

Not a retest: 2 of the compounds above.
canonical_smiles | TRPML1 ag | Six1-Eya2 inh | TRPML1 inh | PINK1 expr mod | D2 agonist | D2 potentiator
CC1CCCN(C(=O)c2ccc3c(=O)n4nc(Nc5ccccc5)sc4nc3c2)C1 (stereo unspecified) | 1.9 | 17 | 2 | 0.6% | 0.8 | 2
Cc1ccc(SCc2cn3cc(Cl)ccc3n2)cc1 | 1.1 | -4 | -5 | 0.8% | 0.2 | -6

High-throughput results: PubChem, National Center for Advancing Translational Sciences (NCATS)
